Screening results deposited in PubChem by PCMD.
Calb biofilm kill = mixtures killing C. albicans biofilm; C. albicans biofilm persisters + clotrimazole, fluorescence viability; primary screen in compound mixtures of four per well; inhibition, % at 7.6 µM; 0.02% of 120,000 active; AID 1242;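 active = inhibition above 30.3% in the primary screen of four-compound pools, then above 30% when the compound was retested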;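 note: compounds exposed to preformed 24 h biofilms for 48 h; the number belongs to the whole pool; some results filed as inactive read as strong as hits; inactives centre near 12; 0% = biofilm with clotrimazole alone and 100% = kill control; retested singly at about 60 µM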
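Probe or stimulus – Clotrimazole 50 µg/mL co-treatment · System – C. albicans biofilms · Schedule – 24 h biofilm formation, then 48 h compound exposure, 37 °C · Evaluation – percent inhibition of biofilm viability · Technique – 2-h Alamar Blue fluorescence, 535/590 nm excitation/emission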
* = called active by the depositor. A portion of the library; count on the stated rates, not on these rows.

smiles,Calb biofilm kill
S=C(Nc1ccc(Cl)cc1)Nc1cccc2cnccc12,5
Cc1ccccc1CN(C)CC(=O)Nc1c(C)cccc1C(C)C,2
O=C(CC1c2ccccc2Oc2ccccc21)Nc1ccccc1C(F)(F)F,6
O=c1c(-c2ccc(F)cc2)[n+]([O-])c2ccccc2n1OCc1ccccn1,6
Cc1cc(C(=O)O)ccc1-c1ccc(/C=C2\NC(=O)N(Cc3ccccc3Cl)C2=O)o1,0
COc1ccc(Cl)cc1NC(=S)Nc1cccnc1,8
CCN(C(=O)COC(=O)c1cc(S(=O)(=O)N2CCc3ccccc32)ccc1OC)C1CCS(=O)(=O)C1 (centres undefined),-4
CC(/C=C/c1ccccc1)=N\NC(=S)NC(C)C,23
CCO[C@@H]1OC(C(=O)N2CCCCCCC2)=C[C@H](c2csc3ccccc23)[C@H]1CCCO,12
O=C(/C=C/c1ccc([N+](=O)[O-])cc1)NCCc1ccc(F)cc1,6
CCOc1ccc(NS(=O)(=O)c2cc(OCC(N)=O)c(C)cc2Cl)cc1,3
CC(C)N(CC(=O)Nc1ccc(Cl)cc1C(F)(F)F)C(=O)CCl,17
O=C(NCCc1cccs1)C1CC(c2cccc(F)c2)=NO1 (centres undefined),6
c1ccc2c(c1)COC(CN1CCCCC1)OC2,-2
Cc1ccc(S(=O)(=O)NCC(=O)N(CC(=O)NCc2ccco2)Cc2ccco2)cc1,19
Cc1cc(C)c(NC(=O)c2ccc(CNS(=O)(=O)c3cc(C(F)(F)F)ccc3Cl)cc2)c(C)c1,7
C=C(C)[C@@H]1CC[C@]2(C(=O)O)CC[C@]3(C)[C@H](CC[C@@H]4[C@@]5(C)CC[C@H](O)C(C)(C)[C@@H]5CC[C@]43C)[C@@H]12,16
CC1CN(C(=O)c2ccccc2)C(=Nc2cccc(S(=O)(=O)N(C)C)c2)S1 (centres undefined),-4
Cc1ccc(F)cc1NC(=O)N1CCN(c2ccnc3cc(Cl)ccc23)CC1,15
COc1cc([N+](=O)[O-])ccc1NC(=O)CCCOc1cc(C)ccc1C,18
COc1ccc(S(=O)(=O)N(C)CC(=O)N2CCCC2)cc1Cl,15
COc1cccc(NC(=O)Nc2ccc3c(c2)nc(C)n3C)c1,20
COc1ccc(C)cc1S(=O)(=O)N(C)CC(=O)N1CCC(C)CC1,20
CCOc1cccc(C2C(C#N)=C(N)Oc3cc(C)[nH]c(=O)c32)c1OCC (centres undefined),22
COc1ccccc1NC(=O)Nc1sccc1-c1nc2ccccc2s1,17
CC1CCN(CCCNC(=O)c2ccc(CS(=O)(=O)Cc3ccccc3F)o2)CC1,5
Cc1cc(Nc2cccc(F)c2)n2ncnc2n1,19
C[n+]1ccc(/C=N/Nc2nc(Cl)c(C#N)c(Cl)c2Cl)cc1,14
CCn1c2ccccc2c2cc(NC(=O)c3coc(=O)c(Br)c3)ccc21,13
COc1cccc(C(=O)NCC(=O)N/N=C/c2cccs2)c1,-3
O=[N+]([O-])c1cccc(/C=N/NC2=NCCCCC2)c1,19
COc1ccccc1CNC(=O)C(C)Sc1ccc(C)cc1 (centres undefined),-7
Cc1nn(C)c(C(=O)NNC(=S)NCC(C)C)c1Cl,24
CSc1ccc(/C=C(/Sc2nnc(-c3ccccc3)o2)C(=O)O)cc1,6
Cc1cc(NC(=O)c2cc(-c3ccccc3C)nc3ccccc23)no1,10
CCOC(=O)/C(=N\Nc1cc(Cl)ccc1Cl)N1CCN(CC)CC1,10
CN(C(=O)COC(=O)CCc1c[nH]c2ccccc12)C(c1ccccc1)c1ccccc1,13
COC(=O)CNC(=O)c1ccc(OC2CCN(C(=O)C3CC3)CC2)cc1,8
CC(C)(C)C(=O)NC(=S)Nc1ccc(S(=O)(=O)Nc2nccs2)cc1,13
Cc1cccn2cc(-c3ccc(NC(=O)Cc4ccccc4)cc3)nc12,13
CN1CCN(NC(=O)c2ccc(S(=O)(=O)N3CCCCCC3)cc2)CC1,5
O=Cc1cn(-c2ccc(F)cc2)c2ccccc12,11
O=C(CSc1cccc[n+]1[O-])NC(=O)c1ccc(OC(F)F)cc1,8
COc1ccc(/C=N/NC(=O)C2(O)c3ccccc3-c3ccccc32)cc1,13
COc1ccc(N2CC(C)(C)C2=O)cc1,17
COC(=O)/C=C1/N/C(=N\c2nc(C)cc(C)n2)N(c2cccc(C)c2)C1=O,13
Cc1nc2cc(NC(=O)NCCCO)ccc2o1,8
Cc1ccc(-c2nnn(CC(=O)N(C)C3CCCCC3)n2)o1,11
COc1ccc(OC)c(C(C)NC(=O)c2ccc(Br)cc2)c1 (centres undefined),13
CC(c1nc2ccccc2c(=O)[nH]1)N(C)CCOc1ccc(Cl)cc1 (centres undefined),22
Cc1nn(-c2ccccc2)c(N2CCCC2)c1/C=N/NC(=O)C1CC1,14
NC(=O)CC(NC(=O)Cc1ccc(Br)cc1)c1ccc(NCc2ccc(F)c(F)c2)c([N+](=O)[O-])c1 (centres undefined),15
CC(=O)Nc1ccc(S(=O)(=O)NC2(C(F)(F)F)NC(=O)N(CC(C)C)C2=O)cc1 (centres undefined),9
Cc1ccc(S(=O)(=O)N2CCC(=O)N(CCOC(=O)Nc3cc(C)cc(C)c3)CC2)cc1,15
C=CCn1cc(C(=O)NCc2ccc(Cl)cc2)c(=O)c2cc(S(=O)(=O)N(CC)CC)ccc21,18
Cc1ccc(N2C(=O)C3C4C=CC(CNC(=S)Nc5ccc(Cl)cc5)(O4)C3C2=O)cc1 (centres undefined),-12
COc1cc(/C=C(\C#N)c2nc3ccccc3o2)ccc1O,5
Cc1ccc(/C=C/S(=O)(=O)NCC(=O)O)cc1,3
COC(=O)C1=C(NC(=O)COc2ccc3ccccc3c2)CCS1,9
Cc1ccc(C(=O)NNS(=O)(=O)c2ccccc2[N+](=O)[O-])cc1,6

A portion from the list above, for reference:
smiles,Calb biofilm kill
Cc1ccc(N2C(=O)C3C4C=CC(CNC(=S)Nc5ccc(Cl)cc5)(O4)C3C2=O)cc1 (centres undefined),-12
COc1cc(/C=C(\C#N)c2nc3ccccc3o2)ccc1O,5
Cc1ccc(/C=C/S(=O)(=O)NCC(=O)O)cc1,3
COC(=O)C1=C(NC(=O)COc2ccc3ccccc3c2)CCS1,9
Cc1ccc(C(=O)NNS(=O)(=O)c2ccccc2[N+](=O)[O-])cc1,6

(listing goes on)
smiles,Calb biofilm kill
Cc1cc(NC(=NC2CC2)c2ccccc2F)n(-c2ccccc2)n1,17
COc1ccc(-n2c(C)cc(/C=C3\SC(=S)N(Cc4ccco4)C3=O)c2C)cc1,18
Cc1cc(C)n2c(C)nnc2c1,14
COc1ccc(C(=O)Nc2cc(=O)n(C)c(=O)n2C)cc1,10
Cn1c(N)c(C(=O)COC(=O)c2cc(-c3ccccc3)nc3ccccc23)c(=O)n(Cc2ccccc2)c1=O,18
Cc1csc(NC(=O)CSc2ccccc2F)n1,-2
O=C(NC1CCCCC1)C(c1cccnc1)N(CCc1ccccc1)C(=O)Cc1cccs1 (centres undefined),16
COc1cc(-c2[nH]nc3c2C(c2ccco2)C(C#N)=C(N)O3)cc(OC)c1OC (centres undefined),-13
C/C=C\C(=O)Nc1cccc(C2=NOC3(C2)C[C@H](C(N)=O)N(C(=O)Cc2ccc([N+](=O)[O-])cc2)C3)c1 (some centres undefined),20
CCCCCCNC(=O)N[C@H](C(=O)NCCC[C@H]1CN2C(=NC[C@H]2C)N1CCC(c1ccccc1)c1ccccc1)C(C)O (some centres undefined),16
O=C(Nc1ccccc1N1CCCCC1)c1cccc([N+](=O)[O-])c1,20
O=C(NCc1cccnc1)C(=O)Nc1ccc([N+](=O)[O-])cc1,7
Cc1nn(CCCC(=O)O)c(C)c1[N+](=O)[O-],12
COc1ccc(C2C(C#N)=C(N)Nc3onc(C(C)(C)C)c32)c(OC)c1 (centres undefined),11
O=C(Oc1ccccc1Cl)c1ccc(N2CCOCC2)c([N+](=O)[O-])c1,12
N/C(=N\OC(=O)CCCOc1ccc(Cl)cc1Cl)c1ccccn1,7
C[C@@H]1CN=C2N(CCNC(=O)CCC3CCCCC3)[C@H](Cc3ccc(O)cc3)CN21,20
CCC(=O)N(C)CCc1cc2c(c(OC)c1/C=N/NC(=O)[C@H]1C[C@@H]1c1ccccc1)OCO2,14
O=C(c1ccc(S(=O)(=O)NCC2CCCO2)cc1)N1CCN(c2ccccc2)CC1 (centres undefined),6
CCOc1ccc2nc(NC(=O)c3cccnc3)sc2c1,14
Cc1c(C(=O)OCC(=O)N(C)c2ccccc2)cccc1[N+](=O)[O-],13
COC(=O)C1=C(Nc2ccc(C)cc2)C=C(C)C(C(=O)OC)C1c1cccc(OC)c1 (centres undefined),10
Cc1ccc(C(=O)Nc2nccs2)cc1,7
OCC1(Cc2ccccc2)CCCN(Cc2cn[nH]c2-c2ccccc2)C1 (centres undefined),10
CC(C)CCOP(=O)(c1ccc(N(C)C)cc1)C(Nc1ccccc1)c1ccc(N(C)C)cc1 (centres undefined),22
CCOC(=O)N1CCC(=NNC(=O)Cn2ccc(C(F)(F)F)n2)CC1,14
COC(=O)c1ccc(NC(=O)CCOc2ccccc2)cc1,-2
O=C1/C(=C/c2cccs2)Sc2ccccc21,15
CC(C)Oc1cccc(C(=O)C2CCCN(Cc3ccc(Oc4ncccn4)cc3)C2)c1 (centres undefined),5
O=C(c1cnn2c(C(F)(F)F)cc(-c3ccccc3)nc12)N1CCCCC1c1cccnc1 (centres undefined),-3

Shown as labelled records: 2 of the compounds above.
> CCO[C@@H]1OC(C(=O)N2CCCCCCC2)=C[C@H](c2csc3ccccc23)[C@H]1CCCO
  Calb biofilm kill = 12
> N/C(=N\OC(=O)CCCOc1ccc(Cl)cc1Cl)c1ccccn1
  Calb biofilm kill = 7

Other results.
smiles,Calb biofilm kill
O=C(NCCO)c1ccc(Oc2ccc(C(F)(F)F)cc2[N+](=O)[O-])cc1,8
CN(C)c1ccc(-c2nnc(SCC3CCCO3)n2C)cc1 (centres undefined),12
COc1ccc(NC(=O)CN(C)S(=O)(=O)c2cccc3nsnc23)cc1OC,13
CCc1cc(C(=O)c2ccc(C)cc2)c(NC(=O)CCl)s1,14
COc1ccc(C2=CC(=O)CC(c3ccc(OC)cc3)C2)cc1 (centres undefined),-11
CC(=O)O[C@H]1C[C@@]2(C)[C@@H](C[C@@H](O)[C@H]3[C@@]4(C)CC[C@@H](O)[C@@H](C)C4CC[C@@]32C)/C1=C(\CCC=C(C)C)C(=O)O (some centres undefined),17
Cc1ccc(/C=N/c2sc(Cc3ccccc3)c(C)c2C(N)=O)o1,12
CC1CC(C)(C)NC(=S)N1CCCC(=O)NCc1ccccc1 (centres undefined),1
O=S(=O)(NC1c2cccc3cccc(c23)C1N1CCNCC1)c1ccc(Cl)cc1 (centres undefined),-5
Nc1nc(SCc2ccccc2Cl)[nH]c(=O)c1-c1ccccc1,11
NC(=S)Nc1ccc(Cl)c(Cl)c1,20
CN(C)/C=C(/C(=O)c1ccc(Cl)cc1)S(C)(=O)=O,7
CC(NC(=O)COc1ccccc1F)C1CC2CCC1C2 (centres undefined),16
NCCS,8
Cc1ccc(S(=O)(=O)N2CCOCC2)cc1NC(=O)CSc1ccccn1,8
Cc1ccc(Cn2cc(/C=N/Nc3ccc([N+](=O)[O-])cn3)c3ccccc32)cc1,19
COc1cc(NC(=O)C23CC4CC(C2)CC(n2cnc([N+](=O)[O-])n2)(C4)C3)cc(OC)c1,10
CC(C)(C)C(=O)/C=c1\[nH]c(=O)/c(=C\c2ccccc2F)s1,15
CC(=O)Nc1nc2ccc(C(=O)NCCOC(=O)C3CCCCC3)cc2s1,29
CC(C)CC(C(=O)NC1CCCCC1)N(Cc1cccs1)C(=O)c1snc(C(N)=O)c1N (centres undefined),7
Nc1nc(SCC(=O)NN(c2ccccc2)c2ccccc2)n[nH]1,14
O=[N+]([O-])c1cc(/C=N/n2c(-c3ccncc3)n[nH]c2=S)ccc1Cl,18
COc1ccc(C(=O)/C=C/Sc2nc3ccccc3o2)cc1,19
Cc1ccc(NC(=O)CC2=NC(=O)C(CC(=O)Nc3ccccc3F)S2)cc1 (centres undefined),18
C#CC[N+](C)(C)CCN1C(=O)C2C(c3ccccc3)C=CC(c3ccccc3)C2C1=O (centres undefined),7
Cc1ccc(C=Nc2ccccc2C#N)s1,20
CNC(=O)NC(=O)C(OC(=O)c1cccc(S(=O)(=O)N2CCCCC2)c1)c1ccccc1 (centres undefined),21
Cn1c2c(c(=O)n(C)c1=O)C(CC(=O)Nc1ccc(F)cc1)C(=O)N2 (centres undefined),22
COC(=O)c1ccc(-c2noc(CN3CCCCC3c3nccn3C)n2)cc1 (centres undefined),15
CC(C)OCCCNC(=O)C(NS(=O)(=O)c1ccc2c(c1)c(=O)n(C)c(=O)n2C)c1ccccc1 (centres undefined),12
Cc1ccc2nc(-c3ccccn3)c(Nc3ccccc3C)n2c1,7
CN(c1ccccc1)S(=O)(=O)c1ccc(C(=O)Nc2nnc(-c3ccco3)o2)cc1,9

Among those listed so far, 3 contain a tert-butyl group:
smiles,Calb biofilm kill
CC(C)(C)C(=O)NC(=S)Nc1ccc(S(=O)(=O)Nc2nccs2)cc1,13
COc1ccc(C2C(C#N)=C(N)Nc3onc(C(C)(C)C)c32)c(OC)c1 (centres undefined),11
CC(C)(C)C(=O)/C=c1\[nH]c(=O)/c(=C\c2ccccc2F)s1,15
